HSV augment = increases HSV replication in cells | HSV replication augmentation in cells, fold increase | maximum fold increase | 220,000 compounds, 0.005% hits | AID 1956;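 active means peak rise of 1.5-fold or more in the series; tested in PC3 cells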;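 further: first round at 10 µM; read as green reporter fluorescence; hits show the peak of a series up to 25 µM; 1 = signal of infected wells without compound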
GALR2 ag = activates the human galanin receptor 2. AID 803. 140,000 compounds, 0.48% hits. GALR2-expressing cells, agonist activation read-out. activation, %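 (tested at 5 µM)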;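 active means above mean plus 3 SD of all compounds, about 5% in these data, not always enough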;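 further: 0% = vehicle buffer wells and 100% = reference agonist at full effect; tested in CHO reporter cells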
Target sequence (O43603 whole entry, looked up): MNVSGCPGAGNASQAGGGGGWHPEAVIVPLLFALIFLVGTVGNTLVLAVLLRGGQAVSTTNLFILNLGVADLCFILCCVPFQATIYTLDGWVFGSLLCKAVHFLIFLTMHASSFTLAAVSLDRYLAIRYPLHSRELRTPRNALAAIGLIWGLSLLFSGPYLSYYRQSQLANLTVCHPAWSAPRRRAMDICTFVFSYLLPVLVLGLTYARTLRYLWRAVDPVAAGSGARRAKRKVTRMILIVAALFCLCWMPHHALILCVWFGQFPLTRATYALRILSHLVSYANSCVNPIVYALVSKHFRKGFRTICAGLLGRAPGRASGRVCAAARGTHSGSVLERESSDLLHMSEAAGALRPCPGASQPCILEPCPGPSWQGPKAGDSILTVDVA
PKD1 kinase inh = inhibitors of human PKD1 kinase; Q15139; PKD1 kinase fluorescence polarization assay; inhibition, %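 (about 10 µM by stock and volumes)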; 200,000 compounds, 0.056% hits;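 active means inhibition of 50% or more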;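 further: controls were vehicle for no effect and a reference inhibitor for full effect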
RGS16-Gao = RGS16-Galphao interaction regulator (human) | 220,000 compounds, 0.38% hits | bead-based flow cytometry RGS16-Galphao binding, fluorescence; actives lie on both sides | binding response (% of control), % at 10 µM | O15492+P09471;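 active means below 25% or above 175%, edge rows of some plates excepted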;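 further: Galphao activated by GDP with aluminum fluoride before binding; 100% = wells without compound and 0% = beads without RGS; some results beyond the cut were filed as inactive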
Target sequence (O15492 whole entry, looked up): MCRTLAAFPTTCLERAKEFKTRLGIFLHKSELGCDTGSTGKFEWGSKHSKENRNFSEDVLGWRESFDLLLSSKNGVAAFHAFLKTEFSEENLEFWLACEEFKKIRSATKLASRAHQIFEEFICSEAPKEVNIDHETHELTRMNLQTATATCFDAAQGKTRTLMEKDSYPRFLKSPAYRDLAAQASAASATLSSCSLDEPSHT
Target sequence (P09471 whole entry, looked up): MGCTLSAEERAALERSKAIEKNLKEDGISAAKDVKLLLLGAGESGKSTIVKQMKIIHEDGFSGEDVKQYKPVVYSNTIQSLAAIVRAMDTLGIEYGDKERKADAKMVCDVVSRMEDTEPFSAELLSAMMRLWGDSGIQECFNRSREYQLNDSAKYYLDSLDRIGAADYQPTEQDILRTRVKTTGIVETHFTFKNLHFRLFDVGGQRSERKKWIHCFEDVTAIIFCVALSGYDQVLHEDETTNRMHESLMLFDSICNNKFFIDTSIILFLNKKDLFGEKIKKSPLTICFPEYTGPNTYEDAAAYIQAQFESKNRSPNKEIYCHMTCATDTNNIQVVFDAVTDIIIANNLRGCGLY
Insulin prom inh = TRM-6 insulin promoter activity inhibition | TRM-6 cells (human fetal islet line), insulin promoter-eGFP reporter, imaging; reporter expression induced with tamoxifen | inhibition, % at 2 µM | 130,000 compounds, 0.9% hits;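 active means inhibition above the mean plus 3 SD, with well images judged a real hit on visual review, cut at about 60% in these data, passing the limit was not always enough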
Insulin prom inh cell count = second read-out of Insulin prom inh, no call of its own (marks repeat the call); normalized cell count, %; measured here: cell count, toxicity; reference of the scale not given here;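 cells exposed to compound for 48 h; stained nuclei by imaging scaled within each plate; lower means fewer cells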
HSV augment primary fold = recorded beside HSV augment, whose call it bears; fold increase; compound at 10 µM; measured here: primary screen fold increase 10 uM; tested in PC3 cells;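 GFP signal in the first replicate; 1 = infected wells without compound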
Numbers without * were called inactive. Not a hit list (roughly 1.1% active in at least one column).

`COc1cccc(C(=O)NC2CCN(C(=O)N3c4ccccc4Sc4ccccc43)CC2)c1` gave HSV augment inactive, GALR2 ag -3.0, PKD1 kinase inh 4, RGS16-Gao 106, Insulin prom inh 25, Insulin prom inh cell count 123 and HSV augment primary fold 0.99.
Screening O=C(O)c1ccc(/C=N/N2CCN(Cc3ccc(Cl)cc3)CC2)cc1 returned HSV augment inactive, PKD1 kinase inh 3, RGS16-Gao 262, Insulin prom inh -13, Insulin prom inh cell count 65 and HSV augment primary fold 0.99.
Screening COC(=O)c1cccc(NC(=O)c2ccc(OC)c(Cl)c2)c1 returned HSV augment inactive, PKD1 kinase inh -1, RGS16-Gao 93 and HSV augment primary fold 0.89.
O=c1/c(=C/c2cn(-c3ccccc3)nc2-c2ccc(F)cc2)sc2nc3ccccc3n12 was read as HSV augment inactive, GALR2 ag -1.0, PKD1 kinase inh -10, RGS16-Gao 100, Insulin prom inh -9, Insulin prom inh cell count 86 and HSV augment primary fold 1.
`CCOC(=O)N1CCC(Nc2c(-c3ccc(C)c(C)c3)c(=O)c2=O)CC1` gave HSV augment inactive, GALR2 ag 2.4, PKD1 kinase inh 0, RGS16-Gao 97 and HSV augment primary fold 0.9.
`CCC(C)NC(=O)CN1C(=O)NC2(CCc3ccccc3C2)C1=O` (stereo unspecified) gave HSV augment inactive, PKD1 kinase inh 2, RGS16-Gao 102 and HSV augment primary fold 0.98.
Screening CCN1CCCc2cc(CN(CCN3CCOCC3)C(=S)Nc3cccc(C)c3)ccc21 returned HSV augment inactive, PKD1 kinase inh 0, RGS16-Gao 99 and HSV augment primary fold 0.87.
For N#Cc1nc(-c2ccco2)oc1NCc1ccc(F)cc1 the results were HSV augment inactive, GALR2 ag -1.7, PKD1 kinase inh -1, RGS16-Gao 97, Insulin prom inh 0, Insulin prom inh cell count 104 and HSV augment primary fold 0.95.
`CCCCC(=O)N(Cc1nc2sc(C)c(C)c2c(=O)[nH]1)C1CCCC1` gave HSV augment inactive, PKD1 kinase inh 1, RGS16-Gao 108 and HSV augment primary fold 0.89.
Screening COCCn1c(SC(C)C(=O)Nc2ncc(Cl)cc2Cl)nc2ccccc21 (stereo unspecified) returned HSV augment inactive, GALR2 ag -6.0, PKD1 kinase inh 1, RGS16-Gao 112, Insulin prom inh -40, Insulin prom inh cell count 71 and HSV augment primary fold 0.74.
`CC(C)Oc1ccc(C(=O)NC(C)(C)CO)cc1` gave HSV augment inactive, GALR2 ag -1.6, PKD1 kinase inh -4, RGS16-Gao 103, Insulin prom inh 17, Insulin prom inh cell count 108 and HSV augment primary fold 1.
CCOC(=O)c1nn(-c2ccc([N+](=O)[O-])cc2)cc1O was read as HSV augment inactive, RGS16-Gao 105 and HSV augment primary fold 0.96.
Screening CCn1c(=O)c2ccccc2n2c(SCC(=O)NCc3cccs3)nnc12 returned HSV augment inactive, GALR2 ag -0.8, PKD1 kinase inh 4, RGS16-Gao 39, Insulin prom inh -136, Insulin prom inh cell count 126 and HSV augment primary fold 0.92.
For CC(=O)Nc1sc(N/N=C/c2ccc(C)cc2)nc1-c1ccc(C)cc1 the results were HSV augment inactive, RGS16-Gao 99 and HSV augment primary fold 1.
O=C(NCc1nnc(SCC(=O)N2CCOCC2)o1)c1c(F)cccc1Cl was read as HSV augment inactive, PKD1 kinase inh -2, RGS16-Gao 94, Insulin prom inh -107, Insulin prom inh cell count 68 and HSV augment primary fold 1.
CCCN1CCN(CCCNC(=O)Cn2cc3c(n2)CCCC3)CC1 was read as HSV augment inactive, GALR2 ag -0.7, PKD1 kinase inh -15, RGS16-Gao 109, Insulin prom inh 20, Insulin prom inh cell count 197 and HSV augment primary fold 0.97.
Screening CCN1CCn2c3c(c4cc(Br)ccc42)CCCC31 (stereo unspecified) returned HSV augment inactive, GALR2 ag -1.2, PKD1 kinase inh -12, Insulin prom inh 45, Insulin prom inh cell count 59 and HSV augment primary fold 0.96.
For CCOc1ccc(N=C(NC#N)SCC(=O)NC2CC2)cc1 the results were HSV augment inactive, GALR2 ag -0.5, PKD1 kinase inh -9, RGS16-Gao 93 and HSV augment primary fold 1.
Screening O=c1c2ccccc2[nH]c(=S)n1CCN1CCc2ccccc2C1 returned HSV augment inactive, RGS16-Gao 101 and HSV augment primary fold 0.87.
`CCn1c(=O)cc(OCC(=O)NCc2cccs2)c2ccccc21` gave HSV augment inactive, PKD1 kinase inh -4, RGS16-Gao 97, Insulin prom inh -20, Insulin prom inh cell count 75 and HSV augment primary fold 0.98.
`Nc1nc(Nc2cccc(Cl)c2)nc(NCCO)c1[N+](=O)[O-]` gave HSV augment inactive, RGS16-Gao 100 and HSV augment primary fold 0.85.
`CC(=O)c1cccc(N=Nc2c(C)[nH]c3ccccc23)c1` gave HSV augment inactive, GALR2 ag -1.6, PKD1 kinase inh -2, RGS16-Gao 103, Insulin prom inh -21, Insulin prom inh cell count 119 and HSV augment primary fold 0.9.
COc1cccc(SCc2noc(C(=O)NCc3ccccc3)c2C(=O)NCc2ccccc2)c1 was read as HSV augment inactive, RGS16-Gao 103 and HSV augment primary fold 0.62.
Screening CC(C)C[C@H](NC(=O)NCCc1ccc(Cl)cc1)C(=O)O returned HSV augment inactive, GALR2 ag -0.9, PKD1 kinase inh 7, RGS16-Gao 103, Insulin prom inh -125, Insulin prom inh cell count 85 and HSV augment primary fold 0.99.

Of the compounds above, these have fluorine:
O=c1/c(=C/c2cn(-c3ccccc3)nc2-c2ccc(F)cc2)sc2nc3ccccc3n12 was read as HSV augment inactive, GALR2 ag -1.0, PKD1 kinase inh -10, RGS16-Gao 100, Insulin prom inh -9, Insulin prom inh cell count 86 and HSV augment primary fold 1.
For N#Cc1nc(-c2ccco2)oc1NCc1ccc(F)cc1 the results were HSV augment inactive, GALR2 ag -1.7, PKD1 kinase inh -1, RGS16-Gao 97, Insulin prom inh 0, Insulin prom inh cell count 104 and HSV augment primary fold 0.95.
O=C(NCc1nnc(SCC(=O)N2CCOCC2)o1)c1c(F)cccc1Cl was read as HSV augment inactive, PKD1 kinase inh -2, RGS16-Gao 94, Insulin prom inh -107, Insulin prom inh cell count 68 and HSV augment primary fold 1.

(list continues)
CC(C)=C1C2CCC1C1C(=O)N(c3ccc(C)c(C)c3)C(=O)C21 (stereo unspecified) was read as HSV augment inactive, GALR2 ag -0.5, PKD1 kinase inh -2, RGS16-Gao 103, Insulin prom inh -69, Insulin prom inh cell count 70 and HSV augment primary fold 1.1.
CCN(CC)S(=O)(=O)c1ccc(N/N=C/c2ccccc2OCC(=O)O)c([N+](=O)[O-])c1 was read as HSV augment inactive, PKD1 kinase inh -6, RGS16-Gao 98 and HSV augment primary fold 1.1.
For CC(C)CNC(=O)NC(=O)COc1c(F)c(F)cc(F)c1F the results were HSV augment inactive, GALR2 ag -2.9, PKD1 kinase inh -2, RGS16-Gao 102, Insulin prom inh 0, Insulin prom inh cell count 88 and HSV augment primary fold 0.94.
O=C(CN(C(=O)c1ccccc1Cl)N1C(=O)CCCC1=O)c1ccc(Cl)cc1 was read as HSV augment inactive, PKD1 kinase inh 0, RGS16-Gao 97, Insulin prom inh 29, Insulin prom inh cell count 102 and HSV augment primary fold 0.81.
For C(=N\N1CCN(c2ccccn2)CC1)/C1=C(N2CCOCC2)C(=C/c2ccccc2)/CC1 the results were HSV augment inactive, PKD1 kinase inh -1, RGS16-Gao 99 and HSV augment primary fold 0.98.
For CCCC(c1nnnn1C(C)(C)CC)N1CCN(C2CCCC2)CC1 (stereo unspecified) the results were HSV augment inactive, GALR2 ag -3.5, PKD1 kinase inh -10, RGS16-Gao 115, Insulin prom inh -13, Insulin prom inh cell count 89 and HSV augment primary fold 0.97.
`COC(=O)C1C(c2ccc(OC)cc2)NC(=O)NC1(O)C(F)(F)Cl` (stereo unspecified) gave HSV augment inactive, PKD1 kinase inh -2, RGS16-Gao 101, Insulin prom inh -50, Insulin prom inh cell count 38 and HSV augment primary fold 0.96.
Screening CC(=O)c1c(C)[nH]c(C(=O)OCc2ccccc2F)c1C returned HSV augment inactive, PKD1 kinase inh 1, RGS16-Gao 112, Insulin prom inh 9, Insulin prom inh cell count 157 and HSV augment primary fold 0.91.
CCOC(=O)C1=C(c2ccccc2)Nc2nc(C)nn2C1c1cccc(OC)c1OC (stereo unspecified) was read as HSV augment inactive, GALR2 ag 0.2, PKD1 kinase inh -7, RGS16-Gao 116, Insulin prom inh -25, Insulin prom inh cell count 230 and HSV augment primary fold 0.95.
`CN1CCN(C(=O)C(C(=O)c2ccc(F)cc2)n2ccccc2=O)CC1` (stereo unspecified) gave HSV augment inactive, GALR2 ag -2.4, PKD1 kinase inh 0, RGS16-Gao 113, Insulin prom inh 6, Insulin prom inh cell count 135 and HSV augment primary fold 0.72.
`CC(C)(C)C(=O)Nc1ccc(N2CCCC2)cc1` gave HSV augment inactive, GALR2 ag -2.2, PKD1 kinase inh 3, RGS16-Gao 101, Insulin prom inh 12, Insulin prom inh cell count 116 and HSV augment primary fold 0.92.
O=C(CNC(=O)c1ccccc1Cl)N/N=C/c1ccc([N+](=O)[O-])s1 was read as HSV augment inactive, GALR2 ag -2.0, PKD1 kinase inh -4, RGS16-Gao 100 and HSV augment primary fold 0.88.

In the list so far, 2 have a cyano group.
For N#Cc1nc(-c2ccco2)oc1NCc1ccc(F)cc1 the results were HSV augment inactive, GALR2 ag -1.7, PKD1 kinase inh -1, RGS16-Gao 97, Insulin prom inh 0, Insulin prom inh cell count 104 and HSV augment primary fold 0.95.
For CCOc1ccc(N=C(NC#N)SCC(=O)NC2CC2)cc1 the results were HSV augment inactive, GALR2 ag -0.5, PKD1 kinase inh -9, RGS16-Gao 93 and HSV augment primary fold 1.

(more compounds)
For Cc1ccc2[nH]c(=O)c(CN(Cc3ccco3)C(=O)CN3CCCC(C)C3)cc2c1 (stereo unspecified) the results were HSV augment inactive, PKD1 kinase inh -5, RGS16-Gao 108 and HSV augment primary fold 0.99.
O=C(O)c1ccc(-n2nc(C(F)(F)F)c3c2-c2ccoc2CC3)cc1 was read as HSV augment inactive, GALR2 ag -2.0, PKD1 kinase inh 1, RGS16-Gao 108, Insulin prom inh 19, Insulin prom inh cell count 78 and HSV augment primary fold 0.8.
For NC(=O)c1ccc(Oc2cccc3cccnc23)c([N+](=O)[O-])c1 the results were HSV augment inactive, PKD1 kinase inh -4, RGS16-Gao 96 and HSV augment primary fold 0.96.
For COc1ccc(NS(=O)(=O)c2ccc(N3C(=O)CCC3=O)cc2)cc1 the results were HSV augment inactive, GALR2 ag -1.6, PKD1 kinase inh -9, RGS16-Gao inactive, Insulin prom inh 8, Insulin prom inh cell count 62 and HSV augment primary fold 0.94.
Screening Cc1cc2c(s1)c1cnn(Cc3ccccc3F)c(=O)c1n2C returned HSV augment inactive, GALR2 ag 1.3, PKD1 kinase inh 0, RGS16-Gao 101, Insulin prom inh -38, Insulin prom inh cell count 148 and HSV augment primary fold 0.93.
For Cc1ccc(C)c(NC(=O)C2CCCN2/C=C/C(=O)C(F)(F)F)c1 (stereo unspecified) the results were HSV augment inactive, GALR2 ag -0.3, PKD1 kinase inh -3, RGS16-Gao 95 and HSV augment primary fold 1.2.
For Cc1cc(NC(=O)CSc2nc(C(C)C)nc3ccccc23)no1 the results were HSV augment inactive, GALR2 ag -1.2, PKD1 kinase inh 3, RGS16-Gao 103, Insulin prom inh 44, Insulin prom inh cell count 142 and HSV augment primary fold 0.66.
`Cc1ccc(C)c(Oc2coc3cc(OC(=O)c4cccs4)ccc3c2=O)c1` gave HSV augment inactive, GALR2 ag -0.7, PKD1 kinase inh -6, Insulin prom inh -33, Insulin prom inh cell count 80 and HSV augment primary fold 1.1.
`c1ccc(-n2cnnc2SCc2cn3ccccc3n2)cc1` gave HSV augment inactive, GALR2 ag -1.4, PKD1 kinase inh 3, RGS16-Gao 99, Insulin prom inh -3, Insulin prom inh cell count 114 and HSV augment primary fold 0.8.
CCCOc1cccc(OCC(=O)Nc2nc3ccccc3[nH]2)c1 was read as HSV augment inactive, GALR2 ag -1.0, PKD1 kinase inh -5, RGS16-Gao 109, Insulin prom inh 45, Insulin prom inh cell count 116 and HSV augment primary fold 0.91.
Screening Cc1noc(C)c1CCC(=O)O returned HSV augment inactive, PKD1 kinase inh 2, RGS16-Gao 102, Insulin prom inh -6, Insulin prom inh cell count 134 and HSV augment primary fold 1.
For O=C(NN1C(=O)c2ccccc2NC1c1ccoc1)c1ccccc1 (stereo unspecified) the results were HSV augment inactive, PKD1 kinase inh -10, RGS16-Gao 99, Insulin prom inh -14, Insulin prom inh cell count 116 and HSV augment primary fold 0.84.
For O=C(NCC(c1cccs1)N1CCOCC1)c1ccc(Cl)c(S(=O)(=O)N2CCOCC2)c1 (stereo unspecified) the results were HSV augment inactive, RGS16-Gao 98 and HSV augment primary fold 1.2.

Screening data deposited in PubChem by several laboratories.
